# GIV Gai3 FP – blocks GIV peptide binding to rat Galpha-i3; P08753; Galpha-i3/FITC-GIV peptide fluorescence polarization, 90 min; hits give low values; scaled: aluminum fluoride 0%, vehicle 100%; percent of control (FP), % (test concentration not listed); actives 0.42% (n = 210,000);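 active = replicate mean at 85% of control or lower, very high polarization wells dropped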;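 also: wells of about 15 µL received 100 nL stock; the first replicate is given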
# Target sequence (P08753 whole entry, looked up): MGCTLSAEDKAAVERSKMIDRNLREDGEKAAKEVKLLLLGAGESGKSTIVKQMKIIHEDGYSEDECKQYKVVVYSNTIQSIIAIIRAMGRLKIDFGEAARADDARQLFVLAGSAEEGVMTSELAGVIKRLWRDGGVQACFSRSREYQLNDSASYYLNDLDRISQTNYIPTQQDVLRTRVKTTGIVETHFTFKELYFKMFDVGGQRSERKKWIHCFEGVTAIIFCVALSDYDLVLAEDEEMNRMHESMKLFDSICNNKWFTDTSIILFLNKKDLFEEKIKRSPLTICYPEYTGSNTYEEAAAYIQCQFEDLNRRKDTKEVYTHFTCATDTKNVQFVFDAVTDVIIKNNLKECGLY
# Numbers without * were called inactive.
SMILES,GIV Gai3 FP
CCOC(=O)C1=C(N)N(c2cccc([N+](=O)[O-])c2)C2=C(C(=O)CC(C)(C)C2)C1c1ccc2c(c1)OCO2 (configuration not stated),115.7
Cc1cccc(-c2nc(-c3ccc(-c4nc(C)no4)cc3)no2)c1,104.6
CCOc1cc(C2C(C(=O)OC)=CN(Cc3ccc(OC)cc3)C=C2C(=O)OC)cc(Br)c1O,99.3
CCCNC(=O)c1cn(CC)nc1S(=O)(=O)N1CCSCC1,103.3
CCOc1ccccc1N/C(SCc1cccc(F)c1)=C(/C#N)C(=O)NCc1cccs1,102.3
CN(CC(=O)N1CCN(C2CCCCC2)CC1)S(=O)(=O)c1cc2c(cc1Cl)NC(=O)CO2,101.9
CCC(C)NC(=O)c1cccc(Nc2ncc(-c3cccc(C)c3)cn2)c1 (configuration not stated),104.4
Cc1cccc(NC2=NC(=S)N(c3ccc(Br)cc3)C23CCCCC3)c1,108.9
CCc1cc(-c2csc(S(=O)(=O)Nc3ccc(C)cc3Br)c2)on1,98.3
CC(=O)c1ccc(NC(=O)CSc2nc3ccc(N4C(=O)c5ccccc5C4=O)cc3s2)cc1,100.7
COc1ccc(-c2noc(CSc3nccn3-c3ccc(C)cc3)n2)cc1,102.5
Cc1nc2sc3c(c2c(=O)o1)CCC(C)C3 (configuration not stated),106.9
Cn1c2c(c(=O)n(C)c1=O)C1(C(=O)Nc3ccccc31)C(C#N)=C(N)O2 (configuration not stated),114.2
Cc1cccc(N2CCN(C(=O)c3cccc(N4C(=O)C5C6C=CC(C6)C5C4=O)c3)CC2C)c1 (configuration not stated),112.2
CC1CC(Nc2ccccc2)c2ccccc2N1C(=O)NC1CCCCC1 (configuration not stated),112.5
CCCCNC(=O)CSc1nc2sc(C(=O)OCC)c(C)c2c(=O)n1CC1CCCO1 (configuration not stated),102.7
Cc1ccc(C)c(N=C2c3ccccc3-c3nc4ccccc4cc32)c1,114.9
COc1ccc(C2NC(C(=O)O)Cc3[nH]cnc32)cc1CSc1nc2ccccc2[nH]1 (configuration not stated),116.1
Cc1ccc(Cl)cc1NC(=O)c1ccc(N2CC3CC(C2)c2cccc(=O)n2C3)c(NC(=O)CCN2CCOCC2)c1 (configuration not stated),109.5
COc1cccc(C2(O)CC(C(F)(F)F)=NN2C(=O)Cc2ccccc2)c1 (configuration not stated),108.5
COc1ccc(-c2noc(-c3nn(-c4ccc(Cl)cc4)ccc3=O)n2)cc1,105.2
Cc1ccc(C2CC(c3cccs3)=NN2C(=O)CSc2cn(C)c3ccccc23)cc1 (configuration not stated),118.5
O=C(CSc1ncccc1C(=O)O)NCCc1ccccc1,108.0
O=C(Nc1ccc(Br)cc1)Nc1ccc(-c2nnc(-c3ccccc3)o2)cc1,104.5
CCCCNC(=O)C1CCCN(c2ncc(-c3ccc(F)cc3)cn2)C1 (configuration not stated),102.1
CCOC(=O)C1=CN(Cc2ccc(OC)c(OC)c2)C=C(C(=O)OCC)C1c1cc(Br)c(OC)c(OC)c1,98.8
CC(C)c1ccc(-c2noc(N3CCC(C(=O)NCCN4CCCC4)CC3)n2)cc1,107.4
COCCCNC(=O)C(=O)Nc1ccc(C)cc1,110.1
COc1nc(-c2ccccc2)cc(-c2ccc(F)cc2)c1C#N,103.6
O=c1n(Cc2ccccc2)nc2c(S(=O)(=O)N3CCCCC3)cccn12,104.3
CCCN1C(SCC(=O)Nc2ccc(C)cc2Cl)=NS(=O)(=O)c2ccccc21,104.8
CCCOc1c(C(=O)OC)sc2ccc(NC(=O)CN3C(=O)C(C)Oc4ccccc43)cc12 (configuration not stated),98.9
Cc1sc(-c2cc(C(F)(F)F)on2)cc1S(=O)(=O)NCc1ccc2c(c1)OCO2,101.0
Cn1c(=O)c2nc(SCCC(=O)Nc3ccc(Br)cc3)n(C)c2n(C)c1=O,100.9
O=C(CC1CCN(S(=O)(=O)c2cccs2)CC1)NCCCN1CCOCC1,105.5
CCOC(=O)c1nc(Nc2ccc3c(c2)OCCO3)c2c(C)c(C)n(-c3ccccc3)c2n1,104.0
O=S(=O)(c1ccccc1)n1c(SCc2c(F)cccc2F)nc2ccccc21,107.6
COC(=O)c1sc2ccc(NC(=O)C3CCN(S(=O)(=O)N4CCOCC4)CC3)cc2c1OC,101.2
CCOC(=O)N1CCN(C(=O)c2ccc3c(=O)n(-c4cccc(C(F)(F)F)c4)c(=S)[nH]c3c2)CC1,104.8
O=[N+]([O-])c1cc(Br)c2nsnc2c1Sc1ncnc2ccccc12,103.7

# As entered above.
# Entry of COc1nc(-c2ccccc2)cc(-c2ccc(F)cc2)c1C#N under GIV Gai3 FP: 103.6
# Entry of COCCCNC(=O)C(=O)Nc1ccc(C)cc1 under GIV Gai3 FP: 110.1
# Entry of COc1cccc(C2(O)CC(C(F)(F)F)=NN2C(=O)Cc2ccccc2)c1 (configuration not stated) under GIV Gai3 FP: 108.5
# Entry of Cn1c2c(c(=O)n(C)c1=O)C1(C(=O)Nc3ccccc31)C(C#N)=C(N)O2 (configuration not stated) under GIV Gai3 FP: 114.2

# Additional structures.
SMILES,GIV Gai3 FP
CCOC(=O)c1ccc(NC2=NC(C)(C)Cc3ccccc32)cc1,109.0
O=C(NCCN1CCOCC1)c1nc(-c2ccc(S(=O)(=O)N3CCCCC3)cc2)no1,96.2
CC12CC(c3ccccc3O1)C(C(=O)N1CCOCC1)C(=O)N2 (configuration not stated),109.1
O=C(NCc1c(-c2ccc(Cl)cc2)nc2n1CCS2)C1CCCCC1,106.4
Cc1cc(C)c2c(n1)sc1c(=O)n(CC(=O)Nc3ccc4c(c3)OCO4)cnc12,95.5
COc1cc(-n2c(C)nc3cc(C(=O)NCc4ccccc4Cl)ccc32)cc(OC)c1OC,97.9
COc1ccc(-c2nn3c(=O)c(NC(=O)c4ccccc4OC)cnc3o2)cc1,104.5
Cn1nc(C(=O)Nc2ccccc2)c2c1CCN(C(=O)CCC(=O)N1CCCCC1)C2,114.2
CCOC(=O)c1sc(NC(=O)c2sc3nc(C)[nH]c(=O)c3c2C)nc1C,116.8
O=C(NCCCn1cccn1)C1CCc2nc(N3CCCCC3)ncc2C1 (configuration not stated),108.0
O=S(=O)(c1cccn2c(SCc3cc(F)cc(F)c3)nnc12)N1CCCC1,98.6
O=C(CSc1nc2ccccc2c(=O)n1NC(=O)CCc1c[nH]c2ccccc12)NCc1ccco1,109.0
O=c1nc2n(-c3ccc(F)cc3)c3cccc(Cl)c3cc-2c(=O)[nH]1,104.8
COc1ccc(NC(=O)c2cc(-c3ccc(F)cc3)nc3ccccc23)cc1OC,99.9
Fc1ccc(-c2csc(Cc3nc(-c4ccccc4Cl)no3)n2)cc1,100.5
Cc1c(CCNC(=O)c2ccccc2Br)sc2nc(-c3ccc(F)cc3)nn12,96.6
COc1ccc(-n2nc(C(=O)N3CCC(Cc4ccccc4)CC3)c3ccccc3c2=O)c(OC)c1,103.2
COc1cc(OC)cc(-n2nc(C(=O)Nc3c(F)cc(F)cc3Br)c3ccccc3c2=O)c1,107.5
COc1ccc([C@H]2C(C#N)=C([S-])N[C@@](O)(c3ccccc3)[C@@H]2[n+]2cccc3cc(Cl)ccc32)cc1,123.9
O=C(Cn1ncc2c(c1=O)N(C1CC1)C(=O)CS2)NCc1ccc2c(c1)OCO2,102.0
COC(=O)CN1C(=O)C2(C(C#N)=C(N)Oc3n[nH]c(-c4ccc5c(c4)OCO5)c32)c2ccccc21 (configuration not stated),101.3
CN1C(=O)C2(CCN(S(=O)(=O)c3cc(F)cc(F)c3)C2)c2ccccc21 (configuration not stated),108.6
CCOc1ccc2c(c1)C(=NN)c1cc(OCC)ccc1-2,103.8
Cc1ccc(-c2nc(CN3CCCC(C(=O)NC(C)C)C3)no2)cc1 (configuration not stated),99.1
COc1ccc2c(c1)NC1(CCN(C(=O)NCC3CCCO3)CC1)c1cccn1-2 (configuration not stated),105.4
CCOC(=O)c1c(NC(=O)C(C)Sc2nnc(CNC(=O)c3ccc(OC)cc3)n2C)sc2c1CCCC2 (configuration not stated),111.2
O=C(c1cn(-c2cc(N3CCCCC3)ncn2)cn1)N1CCC2(CC1)OCCO2,105.1
N#CC1=C(N)Oc2c3c(c4ccccc4c2C1c1ccc(F)cc1)C(c1ccc(F)cc1)C(C#N)=C(N)O3 (configuration not stated),111.5
O=C1N/C(=N\c2ccccn2)SC1Cc1cc(Cl)ccc1Cl (configuration not stated),105.8
Cc1cc(SC(C)C(=O)N2CCc3ccccc32)nc2ccc(S(=O)(=O)N3CCCCC3)cc12 (configuration not stated),103.8
CCOc1ccc(-c2noc(Cc3nc(-c4ccc(F)cc4)cs3)n2)cc1,97.4
COc1ccc(N2C(=O)C(N3C(=O)c4ccc([N+](=O)[O-])cc4C3=O)C2c2ccc(F)cc2)cc1Cl (configuration not stated),109.1
COc1cccc(NNC(=O)C(O)(c2ccc(Cl)cc2)c2ccc(Cl)cc2)c1,109.4
c1cc(-c2csc(C3CC3)n2)cc(-c2noc(-c3cnccn3)n2)c1,102.8
N#CC1=C(N)N2C(=C(C#N)C1c1c(F)cccc1Cl)Sc1ccccc12 (configuration not stated),105.6
O=c1ccc(-c2ccccc2)nn1CCc1nc(-c2ccc(Cl)cc2)no1,101.1
Cc1cc(N2CCCCC2)n2nc(CN3CCN(C(C)C)CC3)nc2n1,98.5
CCOc1ccc(C2C(C#N)=C(N)Oc3n[nH]c(-c4ccc5c(c4)OCO5)c32)cc1OCC (configuration not stated),106.2
CC1CCn2c(nc3cc(C(=O)NC(C)C)ccc32)C1 (configuration not stated),106.3
COc1ccc(S(=O)(=O)N(CC(=O)NCCSCc2ccc(C)cc2)c2ccc(C)cc2)cc1,107.5
CC(C)c1cc(C2CCCN2Cc2ccc(F)c(Br)c2)on1 (configuration not stated),107.1
CC(C)CCNC(=O)C1CCCN(c2ncc(-c3ccc(F)cc3)cn2)C1 (configuration not stated),103.1
CC(C)(C)C(=O)Nc1sc2c(c1C(=O)Nc1cccc3ccccc13)CCC2,113.3
COc1cc(NC(=O)c2sc3nc(C)nc(N4CCCCC4)c3c2C)cc(OC)c1OC,100.9
O=C1CC(c2ccc(F)c(Br)c2)c2cc(Br)c3ccccc3c2N1 (configuration not stated),103.3
COc1cc(C2C(C#N)=C(N)Oc3n[nH]c(C45CC6CC(CC(C6)C4)C5)c32)ccc1O (configuration not stated),102.7
Cc1nc(N2CCC(C(N)=O)(N3CCCCC3)CC2)c2c3c(sc2n1)CCCC3,114.1
COc1ccc(C(=O)Nn2c(SCC(=O)N3CCN(c4ccccc4)CC3)nc3ccccc3c2=O)cc1,103.4
O=C(Nc1ccccc1)c1nnc(C2CCN(C(=O)NC3CCCCC3)CC2)s1,104.5
Cc1cn2c(=O)cc(COc3ccc(Cl)cc3NC(=O)CC(C)C)nc2s1,104.8
CS(=O)(=O)N1CCC(C(=O)N2CCOCC2)Oc2ccccc21 (configuration not stated),100.8
c1cc(-c2nc(-c3ccc(-c4csc(C5CC5)n4)cc3)no2)ccn1,104.7
CCCn1nnc2cc(C(=O)NCCC(=O)Nc3ccc(S(N)(=O)=O)cc3)ccc21,101.9
O=S(=O)(c1ccc(-c2cnc(C3CC3)o2)s1)N1CCCCC1,106.6
O=S(=O)(NC1CCCCC1)c1ccc2c(c1)CCN2,93.9
O=C1C(=O)N(c2ccc(F)cc2)C(c2ccc3c(c2)OCO3)/C1=C(\O)c1ccccc1 (configuration not stated),112.3
O=C(Nc1ccc(F)cc1)c1cccc(Nc2ncc(-c3cccc(F)c3)cn2)c1,110.8
CN1CCC(N2CCN(C(=O)C3CCN(c4cncnc4N4CCCC4)CC3)CC2)CC1,106.8
Cc1nc(CNC(=O)[C@H]2CCCN2C(=O)Cc2ccc(F)cc2)cs1,97.4
Nc1nc(CSc2nnnn2-c2ccc(Cl)cc2)nc(N2CCOCC2)n1,108.1

# Sorted by the number under GIV Gai3 FP (high to low): some entries from above.
SMILES,GIV Gai3 FP
Nc1nc(CSc2nnnn2-c2ccc(Cl)cc2)nc(N2CCOCC2)n1,108.1
Cc1cn2c(=O)cc(COc3ccc(Cl)cc3NC(=O)CC(C)C)nc2s1,104.8
c1cc(-c2nc(-c3ccc(-c4csc(C5CC5)n4)cc3)no2)ccn1,104.7
CCCn1nnc2cc(C(=O)NCCC(=O)Nc3ccc(S(N)(=O)=O)cc3)ccc21,101.9

# (list continues)
SMILES,GIV Gai3 FP
Cc1c(NC(=O)CN(c2cc(C(F)(F)F)ccc2Cl)S(=O)(=O)c2ccccc2)c(=O)n(-c2ccccc2)n1C,117.4
N#CC1(C#N)[C@H](c2ccccc2)[C@@H](C(=O)c2ccccc2)N2C=Cc3ccccc3[C@@H]21,110.6
Cc1nc(-c2cc(NC(=O)c3ccc(C(C)(C)C)cc3)c(C)s2)no1,96.7
CCSc1nnc(-c2nn(C)c3c2CN(C(=O)c2ccccc2Br)CC3)n1C,97.5
Cc1ccccc1CS/C(Nc1ccccc1)=C(\C#N)C(=O)Nc1ccccc1C,101.4
Oc1ccccc1C1Nc2cccc3cccc(c23)N1,115.5
CCN(CC)C(=O)c1ccc(-c2nc3cc(NS(=O)(=O)c4ccc(F)cc4F)ccc3n2C)cc1,98.8
CCCOC(=O)C1=C(C)NC2(O)c3ccccc3C(=O)C12O (configuration not stated),105.4
CCOc1cc(C2C(C#N)=C(N)Oc3n[nH]c(-c4ccccc4)c32)cc([N+](=O)[O-])c1O (configuration not stated),103.3
O=C(NC1CCCCC1)c1cccc(-c2cc(N3CCCC3)ncn2)c1,101.9
Cc1cc(N2CCCC2)n2ncnc2n1,100.9
Cc1[nH]nc2c1C(c1cc([N+](=O)[O-])ccc1OCc1cccc(F)c1)C(C#N)=C(N)O2 (configuration not stated),109.1
COCCc1noc(Cn2ccnc2C)n1,109.6
COc1ccc(C2(c3ccc(O)cc3O)CC(c3ccccc3Cl)NC(=S)N2)cc1 (configuration not stated),111.7
O=c1c2cc3c(cc2nc(SCc2nc(-c4ccc(Cl)cc4)no2)n1C1CC1)OCO3,99.6

# A draw from above in order of SMILES length, ascending:
SMILES,GIV Gai3 FP
CCCOC(=O)C1=C(C)NC2(O)c3ccccc3C(=O)C12O (configuration not stated),105.4
Cc1nc(-c2cc(NC(=O)c3ccc(C(C)(C)C)cc3)c(C)s2)no1,96.7
COc1ccc(C2(c3ccc(O)cc3O)CC(c3ccccc3Cl)NC(=S)N2)cc1 (configuration not stated),111.7
CCN(CC)C(=O)c1ccc(-c2nc3cc(NS(=O)(=O)c4ccc(F)cc4F)ccc3n2C)cc1,98.8

# Screening data (PubChem)

# A portion of the library. The share of hits here may be higher or lower than overall.
